# SARS PLP yeast: inhibitors of SARS-CoV papain-like protease in yeast | S. cerevisiae expressing SARS-CoV PLpro, growth rescue; control for the full effect not named in the record | Potency, µM (top dose mostly 32.9 µM), inactives show at the highest dose activity, positive = growth rescue | hit rate 0.19% among 330,000; active means well fitted rising curve with a large enough effect; inconclusive means small, poorly fitted or top-dose-only effect; inactive means no such curve, though single readings can be large or run the other way; also: 0% is about no effect; nearly all actives have a fitted effect of over 55% in size; growth read by luminescence after 48 h
# Marburg entry inh: Marburg virus entry inhibition; AID 540276; hit rate 1.8% among 300,000; Marburg virus pseudotyped entry inhibition, cell reporter; control for the full effect not named in the record; about a third of the inactives were read at about 46 µM; Potency, µM (highest dose often 37.8 µM), without a hit: at the highest dose activity change, negative = inhibition, most hits filed as inhibitors; active = well fitted inhibition curve with a large enough effect; inconclusive = small, poorly fitted or top-dose-only effect, or effect the other way; inactive = flat fitted curve, though single readings scatter; tested in HEK293 cells; about a fifth of its hits are not listed in these tables; also: % is scaled to controls: 0 for no effect and ±100 for the full control effect; luciferase read-out
# LASV entry inh: blocks Lassa virus binding to or entry into cells. Lassa virus pseudotype entry inhibition, cell reporter; control for the full effect not named in the record. Potency, µM (top dose mostly 37.9 µM), inactives show at the top dose activity change, negative = inhibition, hits mostly inhibitors. hit rate 1.2% among 300,000. AID 540256; active means well fitted inhibition curve with a large enough effect; inconclusive means small, poorly fitted or top-dose-only effect, or effect the other way; inactive means flat fitted curve, though single readings scatter; tested in HEK293 cells; also: % is scaled to controls: 0 for no effect and ±100 for the full control effect; nearly all actives have a fitted effect of over 50% in size; luciferase read-out
# Cruzain noTriton: cruzain (T. cruzi) inhibition without detergent; P25779; purified cruzain, Z-FR-AMC fluorescence, no detergent; Potency, µM, inactives show max response, negative = inhibition, hits mostly inhibitors; hit rate 2.3% among 200,000; AID 1476;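 also: plate controls were enzyme without inhibitor for no effect and buffer without enzyme for full effect; nearly all actives have a fitted effect of over 40% in size; top concentration of the series not given in the record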
# Target sequence (P25779 123-467 limits assumed): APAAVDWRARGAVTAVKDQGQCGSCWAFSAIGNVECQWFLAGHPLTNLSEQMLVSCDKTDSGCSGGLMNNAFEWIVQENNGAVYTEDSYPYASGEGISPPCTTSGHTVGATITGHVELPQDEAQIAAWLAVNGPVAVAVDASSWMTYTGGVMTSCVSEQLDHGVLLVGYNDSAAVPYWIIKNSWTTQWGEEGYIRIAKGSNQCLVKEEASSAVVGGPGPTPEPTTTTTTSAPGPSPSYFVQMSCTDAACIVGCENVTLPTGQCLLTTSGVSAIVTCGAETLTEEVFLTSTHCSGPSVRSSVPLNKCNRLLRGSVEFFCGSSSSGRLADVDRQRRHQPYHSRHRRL
#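 Detergent-free condition (0.00005% Triton X-100) in acetate buffer pH 5.5 with DTT. 1.5 nM enzyme and compound were pre-mixed 15 min, then 2 uM Z-FR-AMC substrate added; reaction progress from fluorescence change between first and third reads (60 s).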
# RE007 growth inh: less growth of the S. pombe RE007 Vpr strain; hit rate 0.21% among 360,000; Potency, µM (top dose mostly 92.2 µM), inactives show at the top dose activity change, negative = less growth; AID 651644; S. pombe RE007 Vpr strain, BacTiter-Glo ATP luminescence, 24 h; control for the full effect not named in the record; active = well fitted falling curve with a large enough effect; inconclusive = small, poorly fitted or top-dose-only effect; inactive = no such curve, though single readings can be large or run the other way;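 also: % is scaled to controls: 0 for no effect and ±100 for the full control effect; nearly all actives have a fitted effect of over 50% in size; the assay follows cell death caused by Vpr and the record does not say whether a fall means rescue or toxicity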
#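 Fission yeast strain RE007, carrying one chromosomally integrated HIV-1 vpr copy, was seeded at OD 0.01 in PMG+AL medium with 23 nL pinned compound. After 24 h at 30 °C and 99% humidity, viability was read by BacTiter-Glo luminescence.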
# NS1 function inh: inhibitors of influenza NS1 protein function. hit rate 0.4% among 270,000. S. cerevisiae slowed by influenza A NS1, growth recovery by OD600. Potency, µM (series often up to 46.1 µM), for the others: top-dose activity, positive = more growth; active means well fitted rising curve with a large enough effect; inconclusive means small, poorly fitted or top-dose-only effect; inactive means no such curve, though single readings can be large or run the other way; also: nearly all actives have a fitted effect of over 50% in size
#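 OD600 was taken as the measure of yeast growth restored by compound in an NS1-expressing S. cerevisiae strain. Cells had been washed out of glucose medium and diluted 1:100 into galactose -URA medium, pH 6.0.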
# Cruzain inh Det: cruzain (T. cruzi) inhibition with detergent; P25779; purified cruzain, Z-FR-AMC fluorescence, 0.01% Triton; Potency, µM, inactives show max response, negative = inhibition, most hits filed as inhibitors; hit rate 0.43% among 200,000; AID 1478;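 also: plate controls were neutral wells for no effect and buffer without enzyme for full effect; nearly all actives have a fitted effect of over 40% in size; top concentration of the series not given in the record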
#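 Cysteine protease activity tested under reducing, mildly acidic conditions (100 mM sodium acetate pH 5.5, 5 mM DTT) plus 0.01% Triton X-100. Cruzain 1.5 nM; substrate Z-FR-AMC 2 uM; 15 min compound preincubation at room temperature.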
# 2A StopGo: lowers the luciferase signal of an FMDV 2A StopGo reporter. Potency, µM (doses to about 57.9 µM), for the others: at the highest dose signal change, negative = less light. hit rate 1.2% among 410,000. human cells with a luciferase reporter of 2A StopGo recoding; control for the full effect not named in the record; active = well fitted falling curve with a large enough effect; inconclusive = small, poorly fitted or top-dose-only effect; inactive = no such curve, though single readings can be large or run the other way; tested in HEK293T cells; also: % is scaled to controls: 0 for no effect and ±100 for the full control effect; nearly all actives have a fitted effect of over 45% in size; luciferase light after 4 h
# An asterisk follows results filed as active; ? = inconclusive; · = no result given; & = joins results of further samples; [ ] = remark or other dose. Unless noted, calls follow the shape of the dose curve; as a rule, active = well fitted curve in the direction sought with a large enough effect; inconclusive = small, poorly fitted or top-dose-only effect, or another doubt; inactive = no such curve, though single readings can be large; an effect the other way counts as inactive or inconclusive. Potency is read from the fitted curve at half-maximal effect.
SMILES,SARS PLP yeast,Marburg entry inh,LASV entry inh,Cruzain noTriton,RE007 growth inh,NS1 function inh,Cruzain inh Det,2A StopGo
O=C(C1CCCN(S(=O)(=O)c2ccc(Cl)cc2)C1)N(Cc1cccs1)C1CC1 (centres undefined),-2%,?,-25%,-8%,15%,-20%,-0.3%,?
O=C(CSc1oc(-c2ccco2)nc1S(=O)(=O)c1ccc(Br)cc1)c1ccc(Cl)cc1,·,-16%[46.1 µM],?,20µM*,·,·,-5.3%,4%
Cc1ccc(NS(=O)(=O)c2cc3c4c(cccc4c2)C(=O)NC3=O)cc1C,-1%,?,?,·,4%,5%,·,0%
Cc1ccc2nc(C3CCCN(C(=S)Nc4cccc(C)c4C)C3)[nH]c2c1 (centres undefined),-3%,?,?,16µM*,-20%,15%,14µM*,·
CN1CCN(NC(=O)CN(C)S(=O)(=O)c2cc(Cl)ccc2Cl)CC1,0%,12%[46.1 µM],8%,·,-14%,4%,·,-15%
Cc1oc2cc3oc(=O)c(CCC(=O)NCCCC(=O)O)c(C)c3cc2c1C,-1%,5%,·,·,1%,2%,·,-11%
O=C(NCc1cccnc1)c1ccccn1,2%,3%,-4%,1%,13%,?,7.2%,11%
CN(C(=O)CO/N=C/c1ccc(Cl)cc1)c1ccccc1,-4%,10%,-7%,·,-15%,0%,·,-14%
CCc1cccc(C)c1NC(=O)c1ccc(CN2CCc3ccccc3C2)cc1,-11%,?,?,16%,-12%,-4%,1.6%,?
CC(C)NC(=O)NC(=O)CSc1nnc(COc2ccccc2Cl)o1,0%,-1%[46.1 µM],5%,-7%,-7%,-3%,4.3%,14%
Cn1c(-c2ccc(N)cc2)nc2ccccc21,1%,-22%,3%,1%,0%,-2%,-1.5%,39%[activator]
CC(C)NC(=O)c1ccc(S(=O)(=O)N(C)C)cc1,-2%,-3%[46.1 µM],11%[46.1 µM],·,-8%,3%,·,-2%
N#CCSc1nnc(COc2cccc3ccccc23)n1-c1ccccc1,-4%,?,?,22%,0%,9%,-3.1%,14µM*
CCC(C)(C)NC(=O)CN(C(=O)c1snc(C(N)=O)c1N)c1ccc2c(c1)OCCO2,-6%,-16%,?,-6%,-2%,-2%,-3.7%,·
CCCNC(=O)C1CCN(c2cc(C)nc3c(-c4ccc(OC)c(OC)c4)c(C)nn23)CC1,·,-7%[46.1 µM],6%[46.1 µM],7%,·,·,0.6%,0%
COc1ccc(CCNC(=O)C2COc3ccccc3C2)cc1OC (centres undefined),·,·,-7%[46.1 µM],2%,·,·,1.5%,-9%
CC(=O)c1ccc(S(=O)(=O)N2CCCC(N(C)CCc3ccccc3)C2)cc1 (centres undefined),?,-8%[46.1 µM],6%[46.1 µM],·,-23%,-6%,·,-5%
COc1cc(C(=O)Nc2ccccc2-c2nc(-c3ccccc3)no2)cc(OC)c1OC,·,3%[46.1 µM],5%[46.1 µM],-7%,·,·,-0.6%,-1%
CCOC(=O)Cc1c(C)c2c(C)[nH]nc2oc1=O,5%,1%,0%,1%,2%,0%,-0.9%,-5%
CCOC(=O)C1C(=O)C(=O)N(C2CCCCC2)C1C(=O)OCC (centres undefined),·,-4%[46.1 µM],11%[46.1 µM],·,1%,·,·,-3%
CCOc1cccc(C(=O)NC(=S)Nc2ccccc2)c1,-4%,?,?,-6%,-25%,27%,-10%,17%
CC1(C)Cc2c(C#N)c(N)n(-c3ccccc3)c(=O)c2CO1,2%,9%[46.1 µM],12%,-4%,16%,-2%,2.2%,0%
COc1ccc(-c2csc(N3CCC(c4ccccc4)CC3)n2)cc1,-1%,13%[46.1 µM],3%[46.1 µM],·,-2%,3%,·,1%
CN(C(=O)c1ccccc1)c1nccnc1C#N,8%,6%,?,·,1%,-5%,·,-18%
O=C(CSc1nnc(Cc2ccccc2)n1-c1cccc(Cl)c1)NNC(=O)Cc1ccccc1,6%,-6%,3%,?,21%,-14%,-1.8%,-19%

# Twelve structures from above, arranged by formula weight, descending.
SMILES,SARS PLP yeast,Marburg entry inh,LASV entry inh,Cruzain noTriton,RE007 growth inh,NS1 function inh,Cruzain inh Det,2A StopGo
CCCNC(=O)C1CCN(c2cc(C)nc3c(-c4ccc(OC)c(OC)c4)c(C)nn23)CC1,·,-7%[46.1 µM],6%[46.1 µM],7%,·,·,0.6%,0%
O=C(C1CCCN(S(=O)(=O)c2ccc(Cl)cc2)C1)N(Cc1cccs1)C1CC1 (centres undefined),-2%,?,-25%,-8%,15%,-20%,-0.3%,?
Cc1ccc(NS(=O)(=O)c2cc3c4c(cccc4c2)C(=O)NC3=O)cc1C,-1%,?,?,·,4%,5%,·,0%
N#CCSc1nnc(COc2cccc3ccccc23)n1-c1ccccc1,-4%,?,?,22%,0%,9%,-3.1%,14µM*
COc1ccc(-c2csc(N3CCC(c4ccccc4)CC3)n2)cc1,-1%,13%[46.1 µM],3%[46.1 µM],·,-2%,3%,·,1%
COc1ccc(CCNC(=O)C2COc3ccccc3C2)cc1OC (centres undefined),·,·,-7%[46.1 µM],2%,·,·,1.5%,-9%
CCOC(=O)C1C(=O)C(=O)N(C2CCCCC2)C1C(=O)OCC (centres undefined),·,-4%[46.1 µM],11%[46.1 µM],·,1%,·,·,-3%
CN(C(=O)CO/N=C/c1ccc(Cl)cc1)c1ccccc1,-4%,10%,-7%,·,-15%,0%,·,-14%
CCOc1cccc(C(=O)NC(=S)Nc2ccccc2)c1,-4%,?,?,-6%,-25%,27%,-10%,17%
CCOC(=O)Cc1c(C)c2c(C)[nH]nc2oc1=O,5%,1%,0%,1%,2%,0%,-0.9%,-5%
CN(C(=O)c1ccccc1)c1nccnc1C#N,8%,6%,?,·,1%,-5%,·,-18%
O=C(NCc1cccnc1)c1ccccn1,2%,3%,-4%,1%,13%,?,7.2%,11%

# More structures.
SMILES,SARS PLP yeast,Marburg entry inh,LASV entry inh,Cruzain noTriton,RE007 growth inh,NS1 function inh,Cruzain inh Det,2A StopGo
CN(C)c1nnnn1-c1ccccc1Oc1ncc(C(F)(F)F)cc1Cl,0%,-3%[46.1 µM],1%[46.1 µM],·,3%,·,·,3%
CCn1cc(S(=O)(=O)Nc2cc(C)ccc2F)cn1,5%,-6%[46.1 µM],?,·,-2%,6%,·,13%
Cc1cc(C)cc(NC(=O)CN2C(=O)c3ccccc3Sc3ccc(C(=O)N4CCCC4)cc32)c1,·,·,-17%[46.1 µM],-10%,·,·,-5.8%,-5%
CCCN(CCC)C(=O)CC(c1ccccc1)c1cc(Br)ccc1O (centres undefined),-13%,?,2%,-6%,4%,-75%,-12%,?
FC(F)(F)c1cccc(CNC(=S)Nc2ccccc2)c1,1%,-17%[46.1 µM],0%,·,-5%,-1%,·,18%
CC(=O)c1ccc(NC(=O)CCCC(=O)c2ccccc2)cc1,0%,·,·,·,-2%,-1%,·,-5%
O=C(CSc1nnc(NC(=O)c2ccccc2[N+](=O)[O-])s1)NCc1ccco1,-2%,1%[46.1 µM],3%[46.1 µM],·,5%,8%,·,30%[activator]
OC(COc1ccccc1F)CN1CCC(Cc2ccccc2)CC1 (centres undefined),4%,·,·,·,-4%,-29%,·,-21%
COCCCNC(=O)C1CCC(=O)N1Cc1ccccc1Cl (centres undefined),1%,13%,-1%,3%,1%,3%,1.0%,-17%
NC(=O)C1CCN(C(=S)NCCc2ccccc2)CC1,0%,15%,?,·,6%,0%,·,17%
COc1ccc(OC)c(NC(=S)NCCC(c2ccccc2)c2ccccc2)c1,·,-24%[46.1 µM],-18%,·,5%,·,·,33%[activator]
COC(=O)Cc1c(C)c2ccc(OCC(=O)N3CCCC3)c(C)c2oc1=O,5%,-21%,13%,·,-27%,4%,·,-22%
CN(C(=O)c1ccc(Cl)cc1)C1=CCCCC1CCC#N (centres undefined),-3%,?,12%,5%,4%,-2%,1.8%,-20%
O=C(c1cc(COc2c(F)cccc2F)on1)N(Cc1ccccc1)CC1CC1,6%,19%[46.1 µM],?,·,7%,-24%,·,20%
Cc1cc(NC(=O)Cn2cc([N+](=O)[O-])cn2)n(Cc2ccc(F)cc2)n1,-3%,1%,14%,·,-5%,·,·,-24%
O=C(CSc1ncccc1C(=O)O)NC1CCCCC1,2%,·,·,·,-9%,-7%,·,-16%
O=C(CCNS(=O)(=O)c1cccc2nonc12)NCCc1ccc(Cl)cc1,-1%,6%&6%,-5%,1%,4%,-12%,-2.6%,-5%
COc1ccc(/C=C/C(=O)OCC(=O)Nc2ncc(Cl)cc2Cl)cc1,-3%,-19%,-14%,·,-12%,·,·,-12%
Cc1nn(C(C)c2nc(-c3ccccc3)no2)c(C)c1[N+](=O)[O-] (centres undefined),-5%,0%,12%,-7%,-3%,-3%,-6.9%,-5%
Cc1nc(Nc2ccc(S(N)(=O)=O)cc2)oc1C,0%,-10%,6%,-1%,-1%,-3%,-1.7%,0%
CCN(c1ccc(NC(=O)COC(=O)C(C)N=C2NS(=O)(=O)c3ccccc32)cc1)C(C)C (centres undefined),-3%,5%[46.1 µM],18%,·,-25%,·,·,9%
CN(C)S(=O)(=O)c1ccc(C(=O)Nc2ccccc2C(=O)O)cc1,-29%,6%[46.1 µM],18%,-6%,-14%,-6%,-2.5%,23%
O=C(CCN1CCN(Cc2ccccc2)CC1)NNC(=O)Nc1cccc(C(F)(F)F)c1,-7%,·,·,·,4%,-6%,·,3%
CCCCNC(=O)c1onc(CSc2ccccc2CC)c1C(=O)O,1%,·,·,4%,3%,19%,1.7%,?
N#CC1=C(N)Oc2cc(O)c(C=Nc3ccccc3)cc2C1c1ccccc1 (centres undefined),-3%,?,-8%,-4%,4%,-6%,-7.6%,?

# Screening data: PubChem BioAssay, National Center for Advancing Translational Sciences (NCATS)
